AID923: qHTS Assay for Allosteric/Competitive Inhibitors of Caspase-1: Spectroscopic Profiling in AFC Spectral Region; compound fluorescence, AFC spectral region (405/520 nm); almost no hit is shown here; Potency, µM (top dose mostly 57.5 µM), for the others: at the top dose fluorescence increase, actives largely listed as activators; 1.1% of 75,000 active; active = well fitted activation curve with a large enough effect; inconclusive = small, poorly fitted or top-dose-only effect;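 note: potency is the fitted concentration of half-maximal effect; 0% is about no effect; scaled to a free AFC standard on each plate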
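Baseline compound fluorescence (AFC region, 405 nm ex/520 nm em) taken from the intercept of kinetic reads with 50 nM caspase-1 and 5 uM Ac-WEHD-AFC; normalized to an on-plate AFC standard curve; compounds titrated up to 57 uM.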
TSHR ag: activates the human thyroid stimulating hormone receptor | HEK293-CNG-TSHR cells (CNG channel as cAMP sensor), membrane potential dye, cAMP | Potency, µM (highest dose often 57.1 µM), for the others: at the highest dose activation, usual class: activators | 0.48% of 73,000 active | AID 926; active = well fitted activation curve of enough size with the parental cells flat; inconclusive = any curve in the parental cells; inactive = parental cells flat and receptor cells flat or falling; note: potency is the fitted concentration of half-maximal effect; % of control where 0% means no effect; weak receptor curves with flat parental cells got no call and are not listed
Target sequence (P16473 whole entry, looked up): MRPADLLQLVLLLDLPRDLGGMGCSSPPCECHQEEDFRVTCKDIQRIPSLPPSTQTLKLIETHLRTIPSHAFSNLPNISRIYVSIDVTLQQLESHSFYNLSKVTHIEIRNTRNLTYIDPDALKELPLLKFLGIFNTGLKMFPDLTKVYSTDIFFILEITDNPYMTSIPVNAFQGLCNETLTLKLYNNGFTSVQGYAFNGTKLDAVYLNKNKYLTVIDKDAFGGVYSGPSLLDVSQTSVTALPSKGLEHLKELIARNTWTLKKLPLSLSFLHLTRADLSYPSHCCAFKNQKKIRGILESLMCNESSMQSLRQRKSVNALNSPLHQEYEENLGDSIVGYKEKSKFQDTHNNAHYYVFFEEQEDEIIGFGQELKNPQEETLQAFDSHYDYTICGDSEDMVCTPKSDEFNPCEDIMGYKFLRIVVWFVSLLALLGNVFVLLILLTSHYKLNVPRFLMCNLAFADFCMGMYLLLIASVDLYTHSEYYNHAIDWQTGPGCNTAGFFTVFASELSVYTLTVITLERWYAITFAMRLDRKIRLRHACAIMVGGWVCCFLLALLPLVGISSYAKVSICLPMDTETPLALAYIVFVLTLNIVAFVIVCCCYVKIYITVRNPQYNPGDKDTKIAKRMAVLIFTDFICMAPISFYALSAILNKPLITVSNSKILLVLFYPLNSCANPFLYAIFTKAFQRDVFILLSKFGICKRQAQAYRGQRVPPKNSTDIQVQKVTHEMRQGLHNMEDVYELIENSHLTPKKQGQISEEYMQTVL
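HEK 293 cells stably expressing TSHR and a modified CNG channel, with CNG-only parental cells as counterscreen, were preloaded 60 min at room temperature with membrane potential dye containing 100 uM RO 20-1724. Compound exposure was 30 min, and depolarization was read as fluorescence at 590 nm.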
Resorufin fluor: compounds fluorescent in resorufin spectral region | Compound fluorescence, resorufin region 547/598 nm, buffer; stronger effect = higher value | max dye-equivalent concentration, M | 0.04% of 59,000 active | AID 588; active = above 10 nM dye equivalent; inconclusive = 1 to 10 nM; inactive = 1 nM or less; a few of its hits are not listed in these tables; note: highest value over a series up to 38 µM
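Compounds in 100 mM Tris buffer, pH 8.0, incubated 15 min at room temperature, then read with 547 nm excitation and 598 nm emission filters. Fluorescence was converted to dye-equivalent concentration using an on-plate six-point resorufin standard curve.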
A488 autofl: compound fluoresces in the A488 spectral region; compound autofluorescence, A488 spectral region, dye equivalency; stronger effect = higher value; max dye equivalency, M; 0.1% of 59,000 active; AID 591; active = above 10 nM dye equivalent; inconclusive = 1 to 10 nM; inactive = 1 nM or less; about half of its hits are not listed in these tables;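 note: highest value over a series up to 38 µM; compound alone in buffer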
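Readout is A488 dye-equivalent concentration, calibrated by a per-plate six-point Alexa 488 series. Compounds in 100 mM Tris buffer pH 8.0 were incubated 15 min at room temperature. Plates were imaged using 480 nm excitation/540 nm emission filters.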
A647 fluor: compound autofluorescence in A647 spectral region. Compound fluorescence, A647 channel (570/671 nm), Tris buffer. max dye-equivalent concentration, M. 59,000 tested, under 10 active; active means above 1 µM dye equivalent; inconclusive means 0.1 to 1 µM; inactive means 0.1 µM or less;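 note: values scaled relative to a standard on each plate; highest value over a series up to 38 µM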
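Tris 100 mM pH 8.0; cpd + A647 stds pin-transferred; 15 min RT; CCD imager, ex 570/em 671. Output = A647-equivalent conc. per cpd conc.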
The depositor's hits bear a star; i = inactive; ? = inconclusive; / = no result given; [ ] = another dose, or the depositor's remark. Only part of the results is shown; rates above refer to the full screens.

SMILES | AID923 | TSHR ag | Resorufin fluor | A488 autofl | A647 fluor
COCCOC(=O)C1=C(C)Nc2nc(C)nn2C1c1ccc(F)cc1 (stereo not drawn) | 0.1% | -4% | i | i | 1e-09
CN1CCCCc2c1[nH]c1ccccc1c2=O | 0.4% | ? | / | / | /
COc1ccc(-n2c(Cc3cc(=O)[nH]c(=O)[nH]3)nnc2SCC(=O)N2CCCC2)cc1 | -1.4% | ? | / | / | /
O=C(Cn1cnc2ccccc21)NCc1ccccc1 | 2.0% | 16% | i | i | 4.5e-09
COCCCn1c(SCC(=O)Nc2ccc3c(c2)OCCO3)nnc1-c1ccoc1C | -4.7% | ? | i | i | 1.3e-08
CCOC(=O)COc1ccc(S(=O)(=O)NCc2cccnc2)cc1 | -2.1% | / | i | i | 1.9e-09
O=C(CSc1nnc(C2COc3ccccc3O2)o1)N1CCCc2ccccc21 (stereo not drawn) | -0.5% | / | i | i | 3.1e-08
O=C(COc1ccccc1)N1CCN=C1c1ccccc1 | 0.3% | 3% | i | i | 1.7e-08
Nc1ccc(Nc2ccccc2)c(Cl)c1 | -1.4% | -10% | / | / | /
O=C(C1CCN(S(=O)(=O)c2cccc3nsnc23)CC1)N1CCn2c1nc1ccccc12 | -0.2% | 0% | i | i | 1e-09
c1ccc(CNc2nc3ccccc3[nH]2)cc1 | -1.6% | 12% | i | i | 1.6e-09
O=C(Nc1cc(N2CCOCC2)ncn1)c1ccccc1 | -0.9% | 1% | i | i | 1e-09
COc1ccc(C2(C(F)(F)F)NC(=O)N(C)C(=O)N2C)cc1 (stereo not drawn) | -0.4% | ? | i | i | 2e-09
COc1ccc(NC(=O)NCCCN2CCCCC2C)cc1 (stereo not drawn) | -0.8% | / | i | i | 2.9e-08
COC(=O)C(C(C)=O)C(=O)C(Cc1ccccc1)NC(=O)OCc1ccccc1 (stereo not drawn) | 1.8%[11.5 µM] | -1%[11.4 µM] | / | / | /
CC1CCCC(NC(=O)CCn2c(=O)oc3ccccc32)C1C (stereo not drawn) | -0.3% | 2% | i | i | 4.9e-09
COc1cccc(C2C(C#N)=C(N)Oc3cc(C)oc(=O)c32)c1OC (stereo not drawn) | 2.6% | 1% | / | / | /
CCOc1ccc(NC(=O)c2ccccc2O)cc1 | -1.2% | 8% | i | i | 6.9e-09
COc1ccccc1N1C(=O)CC(Sc2nccc(C)n2)C1=O (stereo not drawn) | -0.2% | / | i | i | 8.7e-09
CC(C)Sc1nc2ccccc2n1CC(N)=O | 3.0% | 10% | / | / | /
O=C(Cc1ccccc1)Nc1nnc(-c2cccs2)s1 | 2.6% | -12% | i | i | 2.1e-08
O=C(CN1CCC(c2nc3ccccc3[nH]2)CC1)Nc1ccc2c(c1)OCO2 | 0.4% | 15% | i | i | 1e-09
Cc1noc(C)c1C(=O)N1CCC[C@@]2(CCN(c3ncccn3)C2)C1 | 1.0% | 6% | i | i | 3.2e-09
CCCn1cc(NC(=O)c2cc3n(n2)C(C(F)(F)F)CC(c2ccccc2)N3)cn1 (stereo not drawn) | 0.7% | -11% | i | i | 1e-09
Cc1onc(-c2c(F)cccc2Cl)c1C(=O)N1CCc2ccccc2C1 | 2.5% | 20% | i | i | 1e-09
COc1ccc(O)c(/C=c2/sc3nc4cc(C)c(C)cc4n3c2=O)c1 | 7.5% | ? | i | i | 1e-09
Nc1cc(N)nc(SCc2ccccc2)n1 | -1.5% | -5% | i | i | 1.8e-09
COc1ccccc1NC(=O)Nn1cnnc1 | -1.0% | -1% | i | i | 3.9e-08
CCOC(=O)c1[nH]c2ccc(Br)cc2c1NC(=O)CCN1CCC(C(=O)OCC)CC1 | / | / | i | i | 2.9e-09
COC(=O)CNC(=O)C1(C)C=CC2(CCCCC2)N1C(=O)OC (stereo not drawn) | -0.5% | 8% | / | / | /

Results in TSHR ag, A647 fluor and AID923, for some of the entries so far:
SMILES,TSHR ag,A647 fluor,AID923
COc1ccc(O)c(/C=c2/sc3nc4cc(C)c(C)cc4n3c2=O)c1,?,1e-09,7.5%
Nc1cc(N)nc(SCc2ccccc2)n1,-5%,1.8e-09,-1.5%

Additional records:
SMILES | AID923 | TSHR ag | Resorufin fluor | A488 autofl | A647 fluor
Cc1ccc(-c2csc3ncnc(OCC(=O)NC(=O)NCc4ccco4)c23)cc1 | -0.1% | -14% | i | i | 3.5e-08
c1ccc(-n2ncc3c(N4CCN(c5ccccn5)CC4)nc(N4CCOCC4)nc32)cc1 | 1.1% | 0% | i | i | 1.3e-09
COc1ccc(N(CC(=O)Nc2ccc3c(c2)OCCO3)S(=O)(=O)c2c(C)nn(C)c2C)cc1 | -3.2% | -5% | / | / | /
Cc1nc(SCC(=O)NCc2ccco2)c2c(C)c(C)sc2n1 | -3.6% | 27% | i | i | 4.8e-09
Cc1nc2cc(-c3cccc(F)c3)nn2c(N2CCOCC2)c1C | -1.6% | 6% | i | i | 1e-09
Cc1cccc(NC(=O)Nc2cccc(C)n2)n1 | 1.5% | 3% | i | i | 1e-09
CC1(C)Cc2nc3oc4c(=S)nc[nH]c4c3cc2CO1 | -1.3% | 8% | i | i | 1.1e-08
CN(C)S(=O)(=O)c1ccc(Oc2ccccc2)cc1 | -0.7% | 29% | i | i | 1.5e-08
Cc1ccc(F)cc1NC(=O)Cc1nn(C)c(=O)c2ccccc12 | 0.5% | ? | i | i | 2.4e-09
Cc1ccc2nc(NC(=O)c3ccc(Cn4cc(Cl)cn4)o3)sc2c1 | 1.2% | 9% | i | i | 2.2e-08
COc1ccc(NC(=O)CC2Oc3ccccc3NC2=O)cc1 (stereo not drawn) | -0.4% | -4% | / | / | /
Cc1nc2ccc(S(=O)(=O)NC(C(=O)N3CCCC3)C(C)C)cc2s1 (stereo not drawn) | 0.5% | 3% | / | / | /
Nc1nc2[nH]c(=O)cnc2c(=O)[nH]1 | -2.0% | 5% | i | i | 1e-09
CCOc1cccc(-c2nnc3sc(COc4ccc(Cl)cc4)nn23)c1 | 0.2% | ? | i | i | 2.6e-08
COc1ccc(NC(=O)c2ccco2)c(OC)c1 | -0.4% | 5% | i | i | 1.9e-08
CN1CCN(C(c2ccc(F)cc2)c2nnnn2Cc2cccs2)CC1 (stereo not drawn) | -0.7% | 9% | i | i | 1e-09
CC(C)N(O)C(=O)NC(C)(C)C | -1.6% | -1% | i | i | 1e-09
CC1CCN(CCNC(=O)C2CCCN(S(=O)(=O)c3cccc4nonc34)C2)CC1 (stereo not drawn) | 3.8% | -7% | i | i | 2.7e-08
COc1ccc(C(=O)NCc2nnc(SCC(=O)Nc3cccc(C(F)(F)F)c3)o2)cc1OC | -1.7% | 5%[11.4 µM] | i | i | 1e-09
Cc1onc(-c2ccccc2Cl)c1C(=O)OCC(=O)N1CCCc2ccccc21 | 0.2% | 13% | i | i | 2.8e-08
Cn1c(=O)n(CCc2ccccc2)c(=O)c2c1nc1n2CCCN1c1ccc(F)cc1 | 0.9% | -12% | i | i | 1e-09
Cn1c(SCc2ccccn2)nnc1-c1ccncc1 | 0.3% | ? | i | i | 8.2e-09
CSc1cccc(NC(=O)CN(C)S(=O)(=O)c2ccc(C)cc2)c1 | 0.1% | 8% | / | / | /
Oc1[nH]c2ccccc2c1/C=N/c1nccs1 | 1.3% | -5% | i | i | 9.4e-09
Clc1cc(Br)ccc1OCCn1ccnc1 | -0.5% | 5% | i | i | 1e-09
C=CCN(CC(=O)NCc1ccc(OC)cc1)C(=O)c1csnn1 | -2.8% | 4% | i | i | 7e-09
CCN1CCN(C(=O)c2cc3c(=O)oc4ccc(C)cc4c3s2)CC1 | -1.7% | 2% | / | / | /
COc1ccc(S(=O)(=O)N(C)c2ccc(C(=O)N3CCOCC3)cc2)cc1 | 0.0% | 12% | i | i | 2e-09
O=C(CN1CCC(O)(c2ccc(F)cc2)CC1)NCc1ccc(F)cc1 | 0.4% | -6% | i | i | 1.6e-09
Cc1cc2c(cc1C)N(CC(=O)N1CCCC1)C(=O)CC(c1ccccc1)=N2 | 0.1% | 8% | i | i | 2.2e-08

Structures listed so far that have two or more sulfur atoms, in the order listed:
SMILES | AID923 | TSHR ag | Resorufin fluor | A488 autofl | A647 fluor
O=C(C1CCN(S(=O)(=O)c2cccc3nsnc23)CC1)N1CCn2c1nc1ccccc12 | -0.2% | 0% | i | i | 1e-09
O=C(Cc1ccccc1)Nc1nnc(-c2cccs2)s1 | 2.6% | -12% | i | i | 2.1e-08
Cc1nc(SCC(=O)NCc2ccco2)c2c(C)c(C)sc2n1 | -3.6% | 27% | i | i | 4.8e-09
Cc1nc2ccc(S(=O)(=O)NC(C(=O)N3CCCC3)C(C)C)cc2s1 (stereo not drawn) | 0.5% | 3% | / | / | /
CSc1cccc(NC(=O)CN(C)S(=O)(=O)c2ccc(C)cc2)c1 | 0.1% | 8% | / | / | /

(further entries)
SMILES | AID923 | TSHR ag | Resorufin fluor | A488 autofl | A647 fluor
Cc1onc(-c2c(F)cccc2Cl)c1C(=O)N[C@@H]1C(=O)N2[C@H]1SC(C)(C)[C@H]2C(=O)O | -1.8%[11.5 µM] | 5%[11.4 µM] | i | i | 4.5e-08
Cc1c(NC(=O)C2CCCNC2=O)c(=O)n(-c2ccccc2)n1C (stereo not drawn) | 0.0% | 0% | i | i | 8.7e-09
CC(C)CC(NC(=O)OC(C)(C)C)C(=O)NC(C(=O)N1CCCC1C(N)=O)C(C)C (stereo not drawn) | 0.8% | 0% | i | i | 1e-09
O=C1C2CC=C(Cl)CC2C(=O)N1CN(Cc1ccco1)CN1C(=O)C2CC=C(Cl)CC2C1=O (stereo not drawn) | 20% | -2%[11.4 µM] | / | / | /
O=C(CCCC(=O)OCC(F)(F)C(F)F)Nc1nccs1 | -0.6% | -10% | / | / | /
Cc1cc(Cn2ccnc2)c(C)cc1Cn1ccnc1 | / | / | i | i | 8.3e-08
COc1ccc(-c2c(C#N)c(N)nc3c2CCCC3)cc1OC | 2.4% | 17% | i | i | 4.6e-09
O=C(C1CCCN(S(=O)(=O)c2cnc[nH]2)C1)N(CCc1ccccc1)Cc1ccccc1 (stereo not drawn) | -1.4% | ? | / | / | /
CN(Cc1cccc2ccccc12)Cc1cccc2ccccc12 | -0.3%[11.5 µM] | 12%[11.4 µM] | i | i | 1e-09
CNC(=O)[C@@H]1C[C@H]1[C@@H](NC(=O)CNC(=O)OCc1ccccc1)c1ccccc1 | 1.2% | 5% | / | / | /
CN1CCN(/C(=N\S(=O)(=O)c2ccc(F)cc2)c2ccccc2)CC1 | -5.1% | 1% | i | i | 4.2e-08
COCCNc1nc(-c2cccc(OC)c2)nc2ccccc12 | -1.9% | / | i | i | 1e-09
COc1ccc(C(C(=O)OC(C)CN(C)C)c2ccccc2)cc1 (stereo not drawn) | 1.8% | 25%[11.4 µM] | i | i | 3.4e-08
Cn1c(-c2ccccc2)c(CCO)c2ccccc21 | -1.6% | 26% | i | i | 5e-09
c1coc(-c2nc3nc4ccccc4n3nc2-c2ccco2)c1 | 0.4% | ? | i | i | 1.6e-09
CCOc1cccc(NC(=O)C2CC(=O)NC(=Nc3ccccc3)S2)c1 (stereo not drawn) | / | / | i | i | 6.6e-08
CC(=O)Nc1ccc(C(=O)NC2CCCC2)cc1 | -1.7% | -3% | i | i | 6.9e-09
COc1cc2ccccc2cc1C(=O)Nc1ccccc1N1CCN(S(C)(=O)=O)CC1 | 0.7% | -27% | i | i | 2.4e-08
CC1CCCN(C(C(=O)Nc2ccc3c(c2)OCO3)c2ccccc2)C1 (stereo not drawn) | -2.8% | ? | / | / | /
O=C(CN(CC1CCCO1)C(=O)CCC(=O)Nc1ccccn1)NCC1CCCO1 (stereo not drawn) | 0.0% | -2% | i | i | 4e-08
O=C(Nc1ccccc1)OCCOc1ccccc1 | 2.1% | ? | / | / | /
CCCCCn1c(=N)n(CC(O)COc2ccccc2OC)c2ccccc21 (stereo not drawn) | -0.9% | ? | / | / | /

Screening results from PubChem BioAssay.
